Assay outcomes: PubChem BioAssay, several laboratories
GALR2 ag: GALR2 (human) receptor agonism | O43603 | activation, %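 (tested at 5 µM)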 | GALR2-expressing cells, agonist activation read-out | 140,000 compounds, 0.48% hits;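 active = above mean plus 3 SD of all compounds, about 5% in these data, not always enough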;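 note: 0% = vehicle buffer wells and 100% = reference agonist at full effect; tested in CHO reporter cells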
Target sequence (O43603 whole entry, looked up): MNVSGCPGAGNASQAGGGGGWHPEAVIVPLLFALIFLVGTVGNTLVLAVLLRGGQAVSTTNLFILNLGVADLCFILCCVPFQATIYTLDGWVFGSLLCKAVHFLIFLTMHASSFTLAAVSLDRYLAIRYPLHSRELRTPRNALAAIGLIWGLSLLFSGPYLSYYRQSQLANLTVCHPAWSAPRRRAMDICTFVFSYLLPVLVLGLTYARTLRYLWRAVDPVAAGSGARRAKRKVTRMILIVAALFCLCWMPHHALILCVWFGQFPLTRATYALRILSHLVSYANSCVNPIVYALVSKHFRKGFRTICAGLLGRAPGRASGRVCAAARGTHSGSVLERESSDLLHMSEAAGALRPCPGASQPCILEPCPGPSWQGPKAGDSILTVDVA
HSV replic up: increases HSV replication in cells. HSV replication augmentation in cells, fold increase. maximum fold increase. 220,000 compounds, 0.005% hits. AID 1956;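 active = peak rise of 1.5-fold or more in the series; tested in PC3 cells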;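 note: first round at 10 µM; read as green reporter fluorescence; hits show the peak of a series up to 25 µM; 1 = signal of infected wells without compound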
INS promoter inh: TRM-6 insulin promoter activity inhibition | TRM-6 cells (human fetal islet line), insulin promoter-eGFP reporter, imaging; reporter expression induced with tamoxifen | inhibition, % at 2 µM | 130,000 compounds, 0.9% hits | AID 1273;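 active = inhibition above the mean plus 3 SD, with well images judged a real hit on visual review, cut at about 60% in these data, passing the limit was not always enough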
PKD1 kinase inh: inhibitors of human PKD1 kinase; Q15139; PKD1 kinase fluorescence polarization assay; inhibition, %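 (about 10 µM by stock and volumes)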; 200,000 compounds, 0.056% hits;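 active = inhibition of 50% or more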;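 note: controls were vehicle for no effect and a reference inhibitor for full effect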
RGS16-Gao HTS: RGS16-Galphao interaction regulator (human); AID 1441; binding response (% of control), % at 10 µM; O15492+P09471; 220,000 compounds, 0.38% hits; bead-based flow cytometry RGS16-Galphao binding, fluorescence; actives lie on both sides;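 active = below 25% or above 175%, edge rows of some plates excepted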;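 note: Galphao activated by GDP with aluminum fluoride before binding; 100% = wells without compound and 0% = beads without RGS; some results beyond the cut were filed as inactive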
Target sequence (O15492 whole entry, looked up): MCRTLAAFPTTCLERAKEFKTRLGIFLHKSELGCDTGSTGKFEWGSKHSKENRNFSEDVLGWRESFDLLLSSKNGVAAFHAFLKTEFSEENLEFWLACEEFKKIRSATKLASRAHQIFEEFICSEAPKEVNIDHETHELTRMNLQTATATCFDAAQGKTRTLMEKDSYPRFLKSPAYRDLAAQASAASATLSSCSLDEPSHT
Target sequence (P09471 whole entry, looked up): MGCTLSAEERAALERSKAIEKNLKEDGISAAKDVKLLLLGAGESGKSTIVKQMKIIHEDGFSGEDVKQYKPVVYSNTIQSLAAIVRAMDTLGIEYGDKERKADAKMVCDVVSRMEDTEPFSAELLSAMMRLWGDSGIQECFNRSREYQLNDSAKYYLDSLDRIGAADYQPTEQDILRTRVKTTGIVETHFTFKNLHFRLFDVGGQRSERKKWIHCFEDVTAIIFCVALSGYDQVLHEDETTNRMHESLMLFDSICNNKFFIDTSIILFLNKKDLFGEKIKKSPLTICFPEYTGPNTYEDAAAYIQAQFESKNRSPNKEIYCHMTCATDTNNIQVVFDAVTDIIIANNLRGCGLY
INS promoter inh cell count: second read-out of INS promoter inh, no call of its own (marks repeat the call); normalized cell count, %; measured here: cell count, toxicity; reference of the scale not given here;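 cells exposed to compound for 48 h; stained nuclei by imaging scaled within each plate; lower means fewer cells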
HSV replic up primary fold: also measured in HSV replic up; calls as there; fold increase; compound at 10 µM; measured here: primary screen fold increase 10 uM; tested in PC3 cells;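 GFP signal in the first replicate; 1 = infected wells without compound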
An asterisk follows results filed as active; i = inactive; / = not tested or not shown. Compounds as they come. Share with any hit: about 1.3%.

Compound	GALR2 ag	HSV replic up	HSV replic up primary fold	INS promoter inh	INS promoter inh cell count	PKD1 kinase inh	RGS16-Gao HTS
Cc1ccc(-n2nnnc2SCC(=O)Nc2ccc3c(c2)OCCO3)cc1C	-3.0	i	1.08	6.2	93.0	-8.1	52.8
O=C(c1ccco1)N1CCN(C(=O)c2cccs2)CC1	-2.5	i	0.89	50.0	118.6	-7.5	103.2
CC1CCCC(C)N1C(=O)C1CC(c2ccc(F)cc2)=NO1 (centres undefined)	-1.6	i	0.68	/	/	-0.5	182.9
O=C(Nc1ccncc1)Nc1ccncc1	/	i	1.01	-76.9	103.1	3.8	100.3
c1coc(CN=C2NC(=NCc3ccco3)c3ccccc32)c1	-1.4	i	0.97	/	/	-11.2	130.5
Nc1nnc(COc2ccccc2)s1	-1.0	i	1.04	12.5	117.2	-7.2	99.2
Cc1ccc(C(C)C)c(OCC(=O)Nc2ccc(Cl)cn2)c1	2.3	i	1.07	12.0	109.5	-2.1	90.0
COc1ccc2c(c1)Cc1sc(NC(=O)c3ccco3)nc1-2	-0.2	i	0.93	-15.4	146.7	-10.9	41.6
COc1ccccc1OCCNc1cc(N2CCCCC2)ccc1[N+](=O)[O-]	-1.6	i	0.96	3.7	109.5	-8.9	94.3
Cn1nnnc1SCc1nc2scc(-c3ccc(Cl)cc3)c2c(=O)[nH]1	/	i	1.02	/	/	/	105.3
CC(=O)c1ccc(NS(=O)(=O)Cc2ccccc2)cc1	-2.0	i	0.67	/	/	-6.1	99.2
Nc1ncnc(Nc2ccc(F)c(Cl)c2)n1	/	i	1.16	/	/	/	100.5
Cc1nc(CN(C)C(=O)c2ccccc2OC2CCN(S(C)(=O)=O)CC2)cs1	/	i	1.05	/	/	4.4	122.5
CSc1ccc(C2C3(C#N)C(N)=NC4(OCCO4)C23C#N)cc1 (centres undefined)	-2.6	i	0.97	/	/	-7.2	95.9
COc1ccc(CNC(=O)CN(Cc2ccc(F)cc2)C(=O)c2csnn2)cc1	/	i	1.03	/	/	-3.8	104.8

Structural class: those above with two or more sulfur atoms.
Compound	GALR2 ag	HSV replic up	HSV replic up primary fold	INS promoter inh	INS promoter inh cell count	PKD1 kinase inh	RGS16-Gao HTS
Cn1nnnc1SCc1nc2scc(-c3ccc(Cl)cc3)c2c(=O)[nH]1	/	i	1.02	/	/	/	105.3
Cc1nc(CN(C)C(=O)c2ccccc2OC2CCN(S(C)(=O)=O)CC2)cs1	/	i	1.05	/	/	4.4	122.5

(listing goes on)
Compound	GALR2 ag	HSV replic up	HSV replic up primary fold	INS promoter inh	INS promoter inh cell count	PKD1 kinase inh	RGS16-Gao HTS
Cc1ccc(Cn2ncc3c(NCCCN4CCOCC4)ncnc32)cc1	-1.4	i	0.95	55.0	102.7	2.4	99.5
COc1cccc(C2=NO[C@@H]3C(=O)N(c4ccc5c(c4)OCCO5)C(=O)[C@H]23)c1OC	-3.0	i	0.86	80.0*	121.6*	-10.7	144.7
Cc1cc(C(=O)NNc2ccccc2F)no1	/	i	1.37	/	/	/	107.8
O=C(NN1C(=O)/C(=C\c2cccnc2)SC1=S)C(c1ccccc1)c1ccccc1	-0.8	i	0.93	/	/	-3.6	95.2
CS(=O)(=O)Nc1cccc(C(=O)CC2(O)C(=O)Nc3ccccc32)c1 (centres undefined)	-4.4	i	1.08	39.4	112.1	-10.1	91.7
CCN1C(=O)/C(=C/C=C2/Sc3ccc4ccccc4c3N2CCO)SC1=S	-0.6	/	/	-178.6	105.2	-17.3	57.0
CN(C)c1ccc(C2Nc3ccccc3C(=O)N2CCCN2CCOCC2)cc1 (centres undefined)	/	i	1.07	/	/	/	105.4
Cc1ccccc1-c1nc(CS(=O)(=O)CC(=O)NCCCN2C(C)CCCC2C)c(C)o1 (centres undefined)	-1.6	i	0.9	/	/	-14.7	106.2
Cc1ccc(C(=O)CNc2ccc(Cl)cc2)cc1	/	i	1.08	-33.3	94.2	-1.4	103.7
Cc1ccccc1OCc1nc2ccccc2c(=O)n1NC(=O)c1ccco1	-2.7	i	0.86	6.5	84.9	-0.5	100.5
O=C(/C=C/c1ccc(Cl)cc1)NC1CCS(=O)(=O)C1 (centres undefined)	/	i	0.89	19.1	141.9	0.6	107.1
Nc1c(NCCN2CCOCC2)c2ccccc2oc1=O	0.1	i	0.85	/	/	14.5	98.5
CCCCn1c(Cc2ccccc2)nnc1SCC(=O)N1CCOCC1	-2.8	i	0.95	46.0	94.2	-8.2	105.5
O=C(NCc1ccccc1)c1ccc(Cl)cc1	/	i	0.93	/	/	/	99.4
O=C(Cn1c(C(F)(F)F)nc2ccccc21)OCC(=O)c1c[nH]c2ccccc12	-0.8	i	1.09	/	/	-8.6	104.3
CCOC(=O)c1ccc(NC(=S)Nc2cccc(C)n2)cc1	3.5	i	0.76	10.3	101.8	-11.5	110.4
c1ccc(-c2noc(CCC3CCCC3)n2)cc1	/	i	0.96	/	/	-6.2	102.6
O=C(CN1CCOCC1)Nc1ncc(Cc2cccc(Cl)c2Cl)s1	-1.5	i	0.87	3.0	106.5	-2.2	102.9
COc1cccc(N=C(N)N=C(N)N)c1	/	i	1.02	/	/	/	98.5
CCNC(=O)N1c2ccc(OC)cc2C(C)=CC1(C)C	-1.4	i	1.08	64.3	65.0	-0.4	99.9
CSc1ccc(/C=N/NC(=O)CN2CCN(Cc3ccccc3)CC2)cc1	-0.5	i	1.09	/	/	-2.3	190.0
O=C(NCc1cccnc1)c1cccc(S(=O)(=O)N2CCCCC2)c1	-1.6	i	0.75	-12.1	86.6	0.3	83.8
COc1cccc(NC(=S)N(CCCN2CCCC(C)C2)Cc2cccs2)c1 (centres undefined)	/	i	0.93	/	/	-3.9	102.5
CCN1CCCC1CNC(=O)CS(=O)(=O)Cc1nc(-c2ccccc2C)oc1C (centres undefined)	-1.2	i	0.83	/	/	-5.3	98.9
COc1ccccc1NC(=O)COc1ccc(Br)cc1CO	-1.1	i	0.85	37.9	170.7	4.8	87.0
CC(C)N(C(=O)CSc1nc2ccccc2n1Cc1ccccc1)C(C)C	-1.6	i	0.88	-242.9	59.1	-3.0	116.2
CCOCCCn1c(=O)c(NC(=O)c2ccc(OCC)cc2)c2n(c1=S)CCCCC2	-1.3	i	0.89	/	/	1.1	99.4
Cc1ccccc1-n1c(=O)/c(=C\c2ccco2)s/c1=C(/C#N)C(=O)Nc1ccccc1	-0.9	i	1.14	/	/	5.7	103.4
Cc1cc(C)cc(NC(=O)Nc2ccccc2N2CCCCC2)c1	/	i	0.99	/	/	/	100.0
O=c1c2cc(Br)ccc2nc(-c2cccc(C(F)(F)F)c2)n1O	-2.7	i	0.89	/	/	-3.0	98.9
CCOC(=O)c1c(NC(=O)CSC(=S)N(C)C)sc(C)c1C	-0.1	i	0.88	42.9	91.1	-1.9	103.6
O=S(=O)(/N=C(/Nc1ccccc1)C(F)(F)F)c1ccccc1	-1.3	i	1.09	-10.7	92.3	1.3	99.9
Cn1c(=O)oc2cc(S(=O)(=O)NCc3ccco3)ccc21	-2.7	i	0.94	/	/	1.8	102.0
COCc1cc(=O)[nH]c(/N=C(\N)Nc2ccc(Cl)c(Cl)c2)n1	/	i	0.94	/	/	/	100.8
Cc1cc(N/C=C(\C#N)S(=O)(=O)c2ccccc2Cl)nc(C)n1	/	i	1.01	/	/	/	99.3
S=C(Nc1ccccc1Cl)N1CCCC(c2ccccc2)=N1	/	i	0.82	/	/	/	101.2
N#Cc1cnc(Nc2ccc(F)cc2)nc1N	/	i	0.93	/	/	/	102.5
O=C(CN1CCN(c2ccccc2O)CC1)Nc1ccc2c(c1)CCC2	-1.2	i	0.9	/	/	-7.2	108.8
O=C(CSc1c[nH]c2ccccc12)NCC1CCCO1 (centres undefined)	-2.6	i	0.98	/	/	2.1	112.5
CCc1ccc(NC(=O)c2ccc(F)c(S(=O)(=O)N(CC)c3ccccc3)c2)cc1	-1.4	i	0.98	15.6	122.7	13.6	108.3
Cc1nc(COC(=O)c2ccc(CO)cc2)cs1	-1.7	i	0.95	/	/	-5.5	103.6
CCOC(=O)c1cnn(-c2nc(OC)cc(OC)n2)c1C(F)(F)F	-1.0	i	0.75	0.0	137.9	-7.4	101.2
O=c1[nH]c2c(cnn2-c2ccc(Cl)cc2)c(=O)n1-c1cccc(Cl)c1	/	i	1.04	/	/	/	102.8
CC(NC(=O)CSc1ncccc1C(=O)O)C1CC2CCC1C2 (centres undefined)	/	i	1.02	/	/	/	104.6
CC(C)(C(=O)Nc1nccs1)c1ccccc1	/	i	0.93	20.0	154.7	-5.3	146.7

Whole records from above:
`O=C(Cn1c(C(F)(F)F)nc2ccccc21)OCC(=O)c1c[nH]c2ccccc12` across the screens: GALR2 ag: -0.8; HSV replic up: i; HSV replic up primary fold: 1.09; INS promoter inh: /; INS promoter inh cell count: /; PKD1 kinase inh: -8.6; RGS16-Gao HTS: 104.3
`CCOC(=O)c1c(NC(=O)CSC(=S)N(C)C)sc(C)c1C` across the screens: GALR2 ag: -0.1; HSV replic up: i; HSV replic up primary fold: 0.88; INS promoter inh: 42.9; INS promoter inh cell count: 91.1; PKD1 kinase inh: -1.9; RGS16-Gao HTS: 103.6

Other records follow:
Compound	GALR2 ag	HSV replic up	HSV replic up primary fold	INS promoter inh	INS promoter inh cell count	PKD1 kinase inh	RGS16-Gao HTS
Cc1cc(C)cc(OCc2nnc(SCC(=O)c3ccccc3)o2)c1	-1.1	i	1.16	9.5	98.1	-9.1	102.4
COc1ccc(Br)cc1CNC(=O)CCCc1cn(C)c2ccccc12	0.7	/	/	-60.0	99.6	-8.1	96.2
O=C(CCCc1ccccc1)NCCC1=CCCCC1	/	i	1.03	35.3	110.2	-6.4	99.7
Cn1c(=O)[nH]c(=O)c2c1nc(Br)n2CC(O)COc1ccccc1 (centres undefined)	-3.7	i	0.9	-9.1	82.5	-5.9	99.8
CCCCOc1ccccc1C1NC(=O)NC(C)=C1C(=O)OCCOC (centres undefined)	-0.9	i	1.11	/	/	-3.1	/
CCS(=O)(=O)N1Cc2ccccc2CC1C(=O)N1CCN(c2ccccc2)CC1 (centres undefined)	-2.0	i	0.94	0.0	103.4	-7.7	102.5
COc1cccc2[nH]c3c(N4CCCC(C)C4)ncnc3c12 (centres undefined)	-1.0	i	0.77	-14.3	78.0	-8.0	108.6
O=C(O)/C=C\C(=O)Nc1ccccc1F	-0.3	i	1.05	/	/	-6.5	103.1
Cc1csc(SCCN2C(=O)c3ccccc3C2=O)n1	-3.6	i	0.84	-15.0	109.6	2.3	106.4
Cc1c2c(nc3nc4ccccc4n13)CCCC2=O	-2.5	i	0.96	-28.6	117.3	3.6	90.7
CN(C)C(=O)c1ccc(NC(=O)CSc2nc3ccccc3[nH]2)cc1	/	i	0.98	-45.5	60.0	-8.3	89.7
CCOc1ccc2c(c1)c1nnc(SCC(=O)N3CCC(C)CC3)nc1n2C	0.2	i	0.81	-10.5	175.0	4.1	74.1
Cc1cc(C(=O)NNc2ccc(F)cc2F)no1	/	i	1.06	/	/	/	92.7
CS(=O)(=O)c1ccc(-c2nnn(CC(N)=O)n2)cc1	/	i	0.91	0.0	79.1	-2.2	66.2
S=C(NCc1ccncc1)Nc1ccc(Cl)cc1Cl	/	i	1.17	23.5	103.5	6.7	96.6
COc1cc(/C=C2\SC(=Nc3ccccc3)N(CCc3c[nH]c4ccccc34)C2=O)ccc1OC(C)C(=O)O (centres undefined)	1.2	i	0.92	-6.7	97.1	7.8	99.7
CCS(=O)(=O)N1CCN(c2ccc([N+](=O)[O-])c(NCc3ccccc3)c2)CC1	-1.5	i	0.89	24.1	110.5	-5.9	109.5
O=S(=O)(NCc1ccco1)c1ccc(Cl)nc1	-2.2	i	0.98	/	/	-1.4	108.3
Cc1cc2cc(CCNC(=O)c3cccc([N+](=O)[O-])c3)c(=O)[nH]c2cc1C	-0.1	i	0.96	/	/	-4.1	37.4
N#CCCn1cc(/C=N/N=C2\NC(=O)C(CC(=O)O)S2)c(-c2ccc(F)cc2)n1 (centres undefined)	/	i	0.99	/	/	/	111.0
O=C(O)c1ccc(CSc2ncnc3c2cnn3Cc2ccccc2)cc1	/	i	0.98	/	/	/	101.8
CN(C)C=NC(=O)c1cc(C(=O)c2ccc(Cl)cc2Cl)c[nH]1	/	i	0.92	/	/	8.0	100.1
NC(=O)COc1c(-c2ccco2)oc2ccccc2c1=O	/	i	1.19	/	/	-0.9	97.4
COc1ccccc1NC(=O)N(CCN1CCOCC1)Cc1cc2cc(C)cc(C)c2[nH]c1=O	/	i	1.13	/	/	3.3	103.9
CCOc1ccc(-c2n[nH]c(C)c2-c2ccccn2)c(O)c1	/	i	0.87	/	/	-3.3	92.2
CCn1ncc(N(C)N)c(Cl)c1=O	/	i	0.86	/	/	-5.7	97.5
